CSC inhib – blocks cancer stem cells; AID 2717; cancer stem cell-like cells viability, luminescence; 300,000 tested, 1.1% active; inhibition, % at 7.5 µM;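 active = mean at 75% or more and at least half the replicates too; inconclusive = mean and replicates disagree; tested in HMLE shEcad cells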;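 also: 0% = median of negative and 100% = median of positive control wells; the first replicate is given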
MT1-MMP act inh – blocks activation of human MT1-MMP; P50281; HT1080 RFP-PRO-GFP cells, GFP/RFP ratio fluorescence, overnight; percent of plate control window, DMSO zero; GFP/RFP ratio change, % at 20 µM; 360,000 tested, 0.061% active;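 active = GFP/RFP ratio change of at least 30% with cell ATP level not reduced by more than half and red fluorescence within 50% of control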; also: strong numbers were not always called active
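Material – HT1080 RFP-PRO-GFP cells · Control set – DMSO wells and RFP-L50D-GFP cells · Incubation – overnight cell settling, then overnight compound exposure, 37 °C, 5% CO2 · Compound dosing – single-point 20 µM compound, 1% DMSO · Read-out – GFP/RFP fluorescence ratio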
Rce1 inhib – yeast Ras-converting enzyme inhibition. 290,000 tested, 0.27% active. yeast membranes, quenched prenylated peptide cleavage fluorescence. Q03530. calls only;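 active = fall in fluorescence gain of 50% or more versus controls, with final raw signal at or below 3038400; inconclusive = same 50% fall but final raw signal above 3038400; inactive = fall in fluorescence gain under 50%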;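 also: plate controls were neutral control wells for no effect and wells lacking membranes for full effect; tested at 10 µM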
Target sequence (Q03530 whole entry, looked up): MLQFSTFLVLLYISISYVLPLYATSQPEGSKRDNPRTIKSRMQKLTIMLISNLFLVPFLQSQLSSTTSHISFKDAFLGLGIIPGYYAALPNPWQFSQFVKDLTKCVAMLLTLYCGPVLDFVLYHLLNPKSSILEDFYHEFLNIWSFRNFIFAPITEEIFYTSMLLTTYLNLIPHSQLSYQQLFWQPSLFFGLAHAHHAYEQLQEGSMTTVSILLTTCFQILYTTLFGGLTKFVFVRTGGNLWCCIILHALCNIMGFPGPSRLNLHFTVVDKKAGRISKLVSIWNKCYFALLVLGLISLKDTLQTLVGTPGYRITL
Env fusion inh – HIV envelope-mediated fusion inhibition. HeLa-JRFL Env/CEM21 cell fusion, luciferase. inhibition, % at 12.3 µM. 360,000 tested, 1.1% active. AID 651610;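 active = mean replicate inhibition score of at least 50 and every replicate individually at or above 50; inconclusive = only one of the two criteria met; inactive = mean below 50 and not all replicates reaching 50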;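 also: 0% = plate neutral controls and 100% = maraviroc near 300 nM; one replicate is shown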
eIF4H inh – inhibitors of RNA binding by human eIF4H. Q15056. eIF4H fluorescence polarization binding assay. inhibition, % at 35 µM. 290,000 tested, 0.94% active;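 active = 50% or more with normal probe brightness, or confirmed in later tests; inconclusive = above 50% with abnormal brightness, or retests that disagree; inactive = below 50% or failed in later tests; about a fifth of its hits are not listed in these tables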;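 also: calls also rest on retests at 20 µM and on dose response follow-up; 0% = protein and probe with vehicle and 100% = probe without protein; strong numbers were not always called active; many hits fall short of the cut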
PABP FP inh – PABP-poly(A) binding inhibition; P11940; PABP-poly(A) RNA binding, fluorescence polarization; inhibition, % at 35 µM; 290,000 tested, 1% active; AID 2014;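 active = 50% or more with normal probe brightness, or confirmed in later tests; inconclusive = above 50% with abnormal brightness, or retests that disagree; inactive = below 50% or failed in later tests; about a fifth of its hits are not listed in these tables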;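 also: calls also rest on retests at 20 µM and on dose response follow-up; controls were probe without protein and protein plus probe with vehicle; some compounds called inactive have numbers as strong as hits; many hits fall short of the cut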
Target sequence (P11940 whole entry, looked up): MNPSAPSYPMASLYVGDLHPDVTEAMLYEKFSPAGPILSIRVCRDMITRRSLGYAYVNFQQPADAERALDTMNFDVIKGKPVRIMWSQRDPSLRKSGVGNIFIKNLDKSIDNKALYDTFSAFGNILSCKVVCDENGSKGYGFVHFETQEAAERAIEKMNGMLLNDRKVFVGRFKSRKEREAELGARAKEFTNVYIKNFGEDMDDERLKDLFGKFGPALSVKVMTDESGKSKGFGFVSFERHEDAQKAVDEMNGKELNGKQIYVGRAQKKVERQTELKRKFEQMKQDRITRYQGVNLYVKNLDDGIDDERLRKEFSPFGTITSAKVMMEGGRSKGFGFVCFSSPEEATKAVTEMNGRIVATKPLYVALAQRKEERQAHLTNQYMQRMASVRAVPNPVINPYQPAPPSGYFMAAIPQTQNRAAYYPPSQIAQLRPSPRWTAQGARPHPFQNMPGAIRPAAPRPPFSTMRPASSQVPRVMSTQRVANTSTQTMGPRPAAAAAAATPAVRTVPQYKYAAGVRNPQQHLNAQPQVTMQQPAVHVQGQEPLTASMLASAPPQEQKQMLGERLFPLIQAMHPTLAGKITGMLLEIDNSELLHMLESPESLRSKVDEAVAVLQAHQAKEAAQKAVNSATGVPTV
Yeast UUG start – alters start codon recognition fidelity in yeast; AID 602363; S. cerevisiae UUG-firefly luciferase reporter, luminescence/redox ratio; activity score, % at 18.7 µM; 350,000 tested, 0.13% active;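 active = replicate mean at a twofold rise or more, about +100% in these data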;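 also: firefly luciferase made from a UUG start codon reports start codon fidelity; reporter light over untreated wells divided by growth signal over untreated wells; some hits fall short of that in this replicate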
eIF4H inh retest – further read-out of eIF4H inh, marked with its call; inhibition, %; compound at 20 µM; confirmation average;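 mean of two retest wells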
PABP FP inh retest – second read-out of PABP FP inh, no call of its own (marks repeat the call); inhibition, %; compound at 20 µM; confirmation repeats;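 mean of two retest wells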
MT1-MMP act inh RFP – also measured in MT1-MMP act inh; calls as there; RFP signal change, %; measured here: RFP expression control read;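 0 = vehicle wells; hits needed this value within 50% of zero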
Starred values were filed as active, the others as inactive; i = inactive; u = inconclusive; x = no result given; & = joins results of further samples.

SMILES	CSC inhib	MT1-MMP act inh	MT1-MMP act inh RFP	Rce1 inhib	Env fusion inh	eIF4H inh	PABP FP inh	Yeast UUG start	others
COC(=O)CSc1nc(C)cc(Oc2ccccc2)n1	4	2	3	i	11	-4	6	-12
CC(C)c1ccc(NC(=O)C2(C)Cc3c(-c4ccc5c(c4)OCO5)ccnc3O2)cc1 (stereo unspecified)	x	-1	-4	x	5	x	x	-5
CC(CCc1ccco1)NC(=O)CCc1nnc2ccc(NCc3ccc(Cl)cc3)nn12 (stereo unspecified)	-11	3	0	i	-4	x	x	-22
Cc1ccc(CC2CC(=O)N(c3ccc4c(c3)OCCO4)C2=O)cc1 (stereo unspecified)	-7	0	0	i	x	-5	-2	-6
O=C(O)c1ccc2c(c1)C(=O)/C(=C/c1ccccc1)C2=O	14	-12	11	i	-9	83	8	4	eIF4H inh retest=-12;PABP FP inh retest=11
CC(=O)CSc1nc2c(c(=O)[nH]c(=O)n2C)n1Cc1cccc(Br)c1	0	-5	-2	i	12	-4	10	-2
CCOc1ncccc1C(=O)OCC(=O)N(CC)c1ccccc1	-14	1	-2	i	6	-4	-4	1
COc1ccc(S(=O)(=O)N2CCN(C(=O)c3sccc3-c3ccccc3)CC2)cc1	6	-5	-4	i	32	x	x	13
O=C1CC(C(=O)N2CCN(c3ccccc3)CC2)CN1Cc1ccccc1 (stereo unspecified)	18	0	-3	x	x	x	x	-12
COc1ccc(C)c2sc(NC(=O)CCS(=O)(=O)c3ccccc3)nc12	0	-14	-5	i	4	0	-3	-15
CCOc1ccc(NC(=O)CCn2cccc2)cc1	x	-1	3	i	x	1	0	x
Cc1ccc(N(CC(=O)NCc2ccco2)C(=O)CCC(=O)Nc2ccccn2)c(C)c1	-5	-1	4	x	3	-4	9	8

Arranged by length of the SMILES (rising): some entries from above
SMILES	CSC inhib	MT1-MMP act inh	MT1-MMP act inh RFP	Rce1 inhib	Env fusion inh	eIF4H inh	PABP FP inh	Yeast UUG start	others
CCOc1ncccc1C(=O)OCC(=O)N(CC)c1ccccc1	-14	1	-2	i	6	-4	-4	1
COc1ccc(C)c2sc(NC(=O)CCS(=O)(=O)c3ccccc3)nc12	0	-14	-5	i	4	0	-3	-15
COc1ccc(S(=O)(=O)N2CCN(C(=O)c3sccc3-c3ccccc3)CC2)cc1	6	-5	-4	i	32	x	x	13

(next part)
SMILES	CSC inhib	MT1-MMP act inh	MT1-MMP act inh RFP	Rce1 inhib	Env fusion inh	eIF4H inh	PABP FP inh	Yeast UUG start	others
O=C(Nc1nnc(S(=O)(=O)N2CCCCCC2)s1)c1ccc(Br)cc1	8	-2	-2	i	18	6	-11	9
COc1ccc(/C=C2/SC(=S)N(CCC(=O)O)C2=O)cc1	9	4	4	i	58*	4	9	-21
Cc1oc(-c2ccccc2)nc1CC(=O)O	-17	7	11	i	-100	-8	5	-14
CCOC(=O)N1CCN(C(=O)COC(=O)c2ccc(N(C)C)cc2)CC1	2	-1	5	x	-4	x	x	-1
CCOc1ccc(-c2c(=O)n(OCc3ccc([N+](=O)[O-])cc3)c3ccccc3[n+]2[O-])c(OCC)c1	-2	-2	0	x	14	x	x	-11
O=C(NCc1ccccn1)C1CC(c2ccccc2O)=NO1 (stereo unspecified)	-8	5	7	i	21	-6	-4	x
O=C(O)c1nsc(Cl)c1Cl	-22	8	6	i	-25	0	6	-10
CCCCCC(=O)N/N=C(\C)c1ccc(Cl)cc1	11	11	10	i	-40	0	4	-8
CC(=O)c1ccc(OCc2cc(C(=O)N(C)CCOc3ccc(C)cc3)no2)cc1	9	7	2	x	x	-2	-17	-7
CN(c1ccccc1)c1ccc(/C=C(\C#N)c2nnc3n2CCCCC3)cc1[N+](=O)[O-]	80*	6	-9	i	19	-4	-6	x
CNc1ccccc1C(=O)OC	-8	-4	1	i	x	8	9	5
CCNC(=O)CSc1nc(-c2ccc(F)cc2)cs1	-15	3	-1	i	-6	8	0	x
COc1ccc(-c2c[n+]3c4n2CCCCC4=C(c2ccccc2)C3)cc1	x	-12	-1	i	16	11	12	-4
CCOC(=O)C(NC(=O)Nc1ccccc1)(OCC)C(F)(F)F (stereo unspecified)	-6	0	4	i	x	6	7	-3
CCN(CC)S(=O)(=O)c1ccc(C(=O)OC2CCCCC2CN(C)C)cc1 (stereo unspecified)	-3	7	4	i	x	0	-14	-25
Nc1ncc(-c2ccccc2)n1CC1CCCO1 (stereo unspecified)	14	11	4	i	-139	3	-11	-40
COC(=O)CC1Nc2ccccc2SC1=O (stereo unspecified)	2	7	1	i	20	-2	-2	-15
COc1ccccc1C(=O)NCCC(=O)N1CCN(c2cccc(C(F)(F)F)c2)CC1	3	6	1	i	-21	x	x	-2
NS(=O)(=O)c1ccc(NS(=O)(=O)c2ccc(NC(=S)Nc3ccccc3)cc2)cc1	17	2	1	i	-10	5	-8	x
O=c1c2cc(N3CCOCC3)ccc2[nH]c(=S)n1Cc1ccccn1	50	3	4	i	-57	37*	52*	x	eIF4H inh retest=56*;PABP FP inh retest=77*
Cc1cccc(C)c1NC(=O)COC(=O)CNC(=O)C1CCCCC1	x	1	7	x	-5	x	x	-2
CCOc1ccc(C(=O)O[C@H]2[C@H](Cc3ccccc3)NS(=O)(=O)[C@H]3C[C@@H]4C=C[C@]23O4)cc1	1	4	-1	x	-4	x	x	-11
CCc1cc(C(=O)N/N=C/c2ccc(OC)cc2)c2ccccc2n1	38	-7	-11	i	29	-2	-13	-2
O=C(CC1C(=O)NCCN1Cc1c(F)cccc1Cl)NCc1ccccc1 (stereo unspecified)	-9	8	2	i	7	9	23	x
C[C@H](CO)N1C[C@H](C)[C@@H](CN(C)C)Oc2c(NC(=O)Cc3ccccc3)cccc2C1=O	x	3	5	x	19	x	x	-31
O=C(Cc1cccc(NC(=O)C2CCN(C(=O)C3CCCC3)CC2)c1)Nc1cccc(C(=O)N2CCCC2)c1	-2	4	3	x	14	x	x	9
Cn1cc[n+](C)c1COc1ccc(C=O)cc1	-1	-2	-3	i	20	-1	-2	-5
Clc1ccc(-c2noc(CSc3nnc(-c4ccncc4)n3-c3ccccc3)n2)cc1	x	-1	-21	i	94*	-9	-7	-14
CCN(CC)CCC(c1cc(OC)c(OC)c(OC)c1)c1c(OC)cc(OC)c2ccc(=O)oc12 (stereo unspecified)	2	-1	3	i	-2	-9	-6	3
O=C(CN1CCOCC1)N1c2ccccc2Sc2ccc(Cl)cc21	x	-2	-1	x	20	x	x	-9
CC(=O)N1CCN(C(=O)COC(=O)/C=C/c2ccccc2[N+](=O)[O-])CC1	-11	0	2	x	12	x	x	x
COc1cccc(-c2ccc(C#N)c(SCC(=O)NCCc3ccc(Cl)cc3)n2)c1	-8	2	2	i	-10	-2	-1	x
O=C(CCSc1ccc(Cl)cc1)NC1CCCC1	-9	-1	0	i	-1	-8	-8	-10
CCCCCCOC(=O)C1=C(C)NC(=O)NC1c1ccc2c(c1)OCO2 (stereo unspecified)	-7	-1	-7	i	14	3	-2	-10
CCn1c(C)nc2cc(C(=O)N/N=C/c3ccccc3)ccc21	4	12	2	i	-41	-4	-7	x
CC1CCCN(C(=O)CCS(=O)(=O)c2ccc3c(c2)n(C)c(=O)c(=O)n3C)C1 (stereo unspecified)	x	3	1	i	20	4	-6	-4
CCOC(=O)C1(CCCc2ccccc2)CCN(C2CCSCC2)CC1	x	-9	-3	i	0	-4	-6	x
COc1ccc(Br)cc1S(=O)(=O)NCc1ccccc1	16	0	2	i	-24	0	18	-2
COc1ccc(NC(=O)c2ccccc2SCc2ccccc2)cc1	x	2	-7	x	4	x	x	-23
CN=c1scc(C)n1/N=C/c1ccc(O)cc1	3	5	5	i	x	-4	1	-39
O=S(=O)(c1cnc(Cl)c(Cl)c1)N1CCCc2ccccc21	16	-2	0	i	-10	-4	3	x
CCN(c1ccccc1)S(=O)(=O)c1ccc(OC)c(NC(=O)Cc2ccc(F)cc2)c1	47	6	-6	x	x	x	x	-1
O=C(O)c1cccc(Nc2nc(-c3ccc([N+](=O)[O-])cc3)nc3ccccc23)c1	12	0	0	i	16	12	6	-21
CC(C)C(c1nnnn1Cc1ccco1)N1CCN(C2CCCC2)CC1 (stereo unspecified)	6	2	5	i	0	-5	4	-20
CCCCN(CCCC)C(=O)c1ccccc1NC(=O)CN1C(=O)c2ccccc2C1=O	6	0	6	i	x	-5	0	17
Cn1c(=O)c2c(c3ccccc31)OC(=O)CC2c1cccnc1 (stereo unspecified)	x	-6	0	x	-1	-5	-3	x
Cc1csc2nc3ccccc3c(=O)n12	x	3	2	i	x	7	6	-16
CCN1C(=O)/C(=C2/Sc3ccccc3N2CCCS(=O)(=O)O)SC1=S	1	-6&-6	-1&-1	i	14	-11&-10	-4&-2	2&-18
CCOC(=O)c1ccccc1NC(=O)CSc1cccc[n+]1[O-]	6	6	4	i	x	0	-7	-6
CCOc1ccc2ccccc2c1/C=N/NC(=O)c1c(C)cc(C)[nH]c1=O	0	-3	-4	i	2	x	x	-11
CCC(=O)N(CCc1ccc(S(N)(=O)=O)cc1)C1CC(=O)N(c2ccc(OC)cc2)C1=O (stereo unspecified)	-6	-8	-7	i	11	2	1	x
C=CCSc1nnc(NC(=O)C2CSC3(C)CCC(=O)N23)s1 (stereo unspecified)	-20	3	3	i	12	x	x	-16
COc1cc(/C=C2/C(=O)NN(c3ccc(Cl)cc3)C2=O)ccc1OC(=O)c1ccco1	31	-2	-2	i	-11	5	2	x
O/N=C\c1cccn1-c1nccs1	-7	3	3	i	8	10*	64*	-10	eIF4H inh retest=87*;PABP FP inh retest=70*
COc1ccc(CNC(=O)CNC(=O)c2ccc(C(C)(C)C)cc2)cc1OC	-24	4	0	i	5	-3	7	14
C=CCn1cnc2scc(-c3ccc(CC)cc3)c2c1=O	-1	2	5	i	x	-1	3	-22
Cc1cc(C)n2nc(C(=O)OCC(=O)Nc3ccc(C)c(S(=O)(=O)N(C)C)c3)nc2n1	-2	-1	2	x	x	x	x	-12
O=C(Oc1ccccc1C(=O)N1CCOCC1)c1ccccc1	2	-2	-1	i	-51	7	-2	-16
CC(=O)c1ccccc1N(C(=O)Cn1nnc2ccccc21)C(C(=O)NCC1CCCO1)c1ccc(N2CCOCC2)cc1 (stereo unspecified)	7	0	2	i	-4	0	-10	-14
O=C(N/N=C/c1sc2ccccc2c1O)c1ccccc1	35	-148	10	i	x	u	2	-13

Other records
SMILES	CSC inhib	MT1-MMP act inh	MT1-MMP act inh RFP	Rce1 inhib	Env fusion inh	eIF4H inh	PABP FP inh	Yeast UUG start	others
COc1ccc(C(=O)Nc2nc3cc4c(cc3s2)OCO4)c(OC)c1	8	4	-2	i	-206	4	-2	-19
COc1ccc(-c2nc3ccccn3c2CN2CCN(c3ccccc3F)CC2)cc1	43	0	-11	i	13	-5	4	x
O=C(N/N=C/c1ccc2c(c1)OCO2)c1cc(-c2ccccc2Cl)nc2ccccc12	8	-2	4	i	x	-6	-10	-19
CC(=O)c1cccc(NS(=O)(=O)N2CCCCC2)c1	x	-2	-3	i	x	-6	0	-14
O=C(Nc1ccc(Br)cc1)c1cc(-c2ccncc2)nc2ccccc12	-5	-9	-6	x	10	x	x	-17
CCN1CCN(C(=O)/C=C/c2ccc(C(C)C)cc2)CC1	26	5	-3	i	6	x	x	1
Cc1sc2ncn(CC(=O)NCCN(C)C)c(=O)c2c1S(=O)(=O)N1CCC(C)CC1	-10	4	6	i	0	3	3	3

High-throughput results deposited in PubChem BioAssay by several laboratories.

An excerpt; rates above refer to the full screens.
